# Arbovirus inh = blocks arbovirus infection; arbovirus infection cell-based antiviral screen; inhibition, % at 10 µM; 200,000 tested, 0.37% active; AID 1251;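 active = inhibition from about 30%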;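 also: bluetongue infection of BSR cells; cell survival read as ATP light after 72 h; 0% = infected wells without compound and 100% = uninfected wells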
# RecA splice inh = blocks M. tuberculosis RecA intein splicing; cell-free RecA intein splicing, fluorescence; inhibition, %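 (about 9 µM by stock and volumes)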; 290,000 tested, 0.75% active; AID 2221; in the data active = inhibition above about 30%; inconclusive = no clear call, values can overlap the other calls;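 also: 0% = vehicle wells and 100% = reference inhibitor control wells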
# Target sequence (P9WHJ3 whole entry, looked up, canonical isoform): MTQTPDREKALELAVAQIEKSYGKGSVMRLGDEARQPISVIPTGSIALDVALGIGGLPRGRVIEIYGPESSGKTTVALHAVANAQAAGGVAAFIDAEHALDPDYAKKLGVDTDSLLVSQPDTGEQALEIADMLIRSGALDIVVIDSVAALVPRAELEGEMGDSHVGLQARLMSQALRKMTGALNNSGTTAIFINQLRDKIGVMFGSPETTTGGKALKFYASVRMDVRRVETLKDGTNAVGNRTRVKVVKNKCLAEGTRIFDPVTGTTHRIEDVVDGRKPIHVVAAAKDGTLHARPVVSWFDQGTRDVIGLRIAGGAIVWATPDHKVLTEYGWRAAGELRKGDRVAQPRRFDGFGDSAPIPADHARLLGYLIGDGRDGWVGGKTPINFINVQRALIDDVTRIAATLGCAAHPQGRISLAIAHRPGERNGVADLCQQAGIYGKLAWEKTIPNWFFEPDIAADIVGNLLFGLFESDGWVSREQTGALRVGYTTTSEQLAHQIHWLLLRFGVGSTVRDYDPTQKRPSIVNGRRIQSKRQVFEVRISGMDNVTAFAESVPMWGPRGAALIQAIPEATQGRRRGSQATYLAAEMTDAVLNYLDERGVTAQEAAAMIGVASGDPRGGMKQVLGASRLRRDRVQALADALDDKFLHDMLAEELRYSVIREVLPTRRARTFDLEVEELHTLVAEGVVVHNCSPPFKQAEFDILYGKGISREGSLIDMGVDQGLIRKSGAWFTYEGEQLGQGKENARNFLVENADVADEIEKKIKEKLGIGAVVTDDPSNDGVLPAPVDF
# YopH inh = inhibitors of Yersinia enterocolitica YopH tyrosine phosphatase; 140,000 tested, 0.16% active; AID 898; fluorescence Ex485/Em525; inhibition, %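 (about 10 µM by stock and volumes)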;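 active = inhibition of 50% or more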;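 also: controls were vehicle for no effect and minimum signal wells for full effect; inactives centre near -20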
# Mtb growth = M. tuberculosis H37Rv growth inhibitors, H37Rv strain (AID 1626); one-dose inhibition, % at 10 µM; IC50 in µM for titrated hits; 220,000 tested, 0.95% active; M. tuberculosis H37Rv growth inhibition; higher % means a stronger effect;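 active = confirmed in a dose series; inconclusive = inhibition above 80% but not taken into the dose series; inactive = below 80% or under 30% at every dose of the series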;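 also: bacteria incubated seven days before Alamar blue readout; 0% = bacteria only wells and 100% = bacteria with antibiotic wells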
# Mtb bLac sens = beta-lactam sensitization of Mtb H37Rv | M. tuberculosis H37Rv growth with meropenem, percent inhibition; hits of this screen are not shown here | inhibition, % at 25 µM | 330,000 tested, 0.27% active;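 active = about 74% or more and at least 40 points above the plate without the antibiotic, then above 30% in a dose series; inconclusive = first-round hits that could not be retested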;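 also: growth measured after seven days incubation then overnight dye step; 0% = bacteria only wells and 100% = bacteria with antibiotic; twin plates without the antibiotic show which effects depend on it; some results filed as inactive read as strong as hits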
# Arbovirus inh repeat = second read-out of Arbovirus inh, no call of its own (marks repeat the call); inhibition, %; measured here: 10K subset replicate screen; many hits read low in the repeat;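 first of two repeat runs on a subset; 0% = infected and 100% = uninfected wells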
# Starred values were filed as active, the others as inactive; ? = inconclusive; . = not tested or not shown.
SMILES,Arbovirus inh,RecA splice inh,YopH inh,Mtb growth,Mtb bLac sens,others
COC(=O)c1nn(-c2ccc(OC)cc2)c(=O)cc1Oc1ccccc1,9,5.0,-27,3%,3,
CC(C)(C)NC(=O)CN(C(=O)CCC(=O)Nc1nccs1)c1ccc(F)cc1,.,-1.8,.,.,2,
COc1ccc(NCC(=O)Nc2cc(S(=O)(=O)N3CCOCC3)ccc2N2CCOCC2)c(OC)c1,.,0.4,.,14%,-2,
CN1C(=S)SC2CS(=O)(=O)CC21 (stereo not drawn),.,-0.8,.,.,-1,
O=C(CSc1nccc(=O)[nH]1)NCc1ccc(Cl)cc1,1,-6.0,.,-1%,-1,
O=C1CN(C(=O)CNC(=O)c2ccccc2Cl)c2ccccc2N1,7,0.5,.,-6%,-1,
COc1ccc(CN(C(=O)c2cccs2)c2ccccc2C(=O)O)cc1,.,-1.6,.,-9%,-5,
COc1cc(C2C=C(c3cccs3)Nc3ncnn32)cc(OC)c1OC (stereo not drawn),6,.,.,3%,.,
Cc1ccc2c(c1)-c1nc3ccccc3cc1C2=NC1CCCCC1,-40,.,-20,8%,0,
COc1ccc(CCNC(=O)CCn2cccc2)cc1OC,1,-6.9,-19,-10%,3,
COc1ccc(-n2nc(C(=O)NCC(=O)NCCCN3CCN(C)CC3)c3ccccc3c2=O)cc1OC,.,0.3,.,.,-3,
O=C(Cn1nnc(-c2ccccc2)n1)NC1CCS(=O)(=O)C1 (stereo not drawn),.,2.9,.,.,-9,

# Of the compounds above, these have a halogen.
SMILES,Arbovirus inh,RecA splice inh,YopH inh,Mtb growth,Mtb bLac sens,others
CC(C)(C)NC(=O)CN(C(=O)CCC(=O)Nc1nccs1)c1ccc(F)cc1,.,-1.8,.,.,2,
O=C(CSc1nccc(=O)[nH]1)NCc1ccc(Cl)cc1,1,-6.0,.,-1%,-1,
O=C1CN(C(=O)CNC(=O)c2ccccc2Cl)c2ccccc2N1,7,0.5,.,-6%,-1,

# Later entries
SMILES,Arbovirus inh,RecA splice inh,YopH inh,Mtb growth,Mtb bLac sens,others
Cc1cc(NC(=O)CSc2ccc3nnc(-c4cccc(F)c4)n3n2)no1,14,-0.3,-9,-4%,-2,
O=C(Nc1nnc(-c2ccccc2)s1)c1cc(S(=O)(=O)N2CCOCC2)c(Cl)cc1Cl,-27,-2.0,1,-13%,1,
O=C(Nc1cccc(NS(=O)(=O)c2ccc(S(=O)(=O)NC3CC3)cc2)c1)c1ccccn1,11,0.5,-28,-8%,-3,
CN1CCC(=O)N(CCSc2ccc(Br)cc2)CC1,.,0.2,.,-8%,-5,
COCCNCCCOc1ccc(Cl)cc1Br,-41,-1.4,.,3%,3,
CCn1nnnc1SCC(=O)c1ccc(NC(C)=O)cc1,7,0.5,-38,-11%,-12,
Cc1c(NC(=S)NC(=O)C(c2ccccc2)c2ccccc2)cccc1C(=O)O,5,0.5,-5,-6%,-14,
COC(=O)C1(Cc2cc(-c3cccc(Br)c3)no2)CCN(C(=O)OC(C)(C)C)CC1,.,8.1,.,.,2,
O=C(O)CC1Sc2nnc(COc3ccc(Cl)cc3)n2N=C1c1ccccc1 (stereo not drawn),.,-0.7,.,.,-9,
CC(C)(C)c1cc(OC(=O)C2CCCC2)ccc1O,.,3.7,.,.,-8,
CCN(CCNC(=O)C1CCC(=O)N1Cc1ccc(C)cc1)c1ccccc1 (stereo not drawn),0,-5.5,.,-5%,-3,
COc1ccccc1NC(=S)NCCSc1ccc(C)cc1,34*,4.8,-18,2%,2,
Cc1c(C(=O)N2CCOCC2)sc(NC(=O)c2ccc([N+](=O)[O-])cc2)c1C#N,.,1.1,.,.,9,
O=C(NCc1c(F)cccc1F)c1cc(COc2c(F)cccc2F)on1,-7,4.4,.,4%,-7,
CCc1nc(SCC(=O)N2CCN(C(=O)c3ccco3)CC2)c2c3c(sc2n1)CCCC3,-10,1.5,-44,?,100,
Cn1c2c(c(=O)n(C)c1=O)C(C(F)(F)F)(C(F)(F)F)N=C(C1CCCCC1)N2,11,3.2,-13,-3%,3,
CN(C)CCCNc1nc(N)c([N+](=O)[O-])c(NCc2ccccc2)n1,.,-3.3,.,.,-7,
O=C(CSCc1ccc(Cl)cc1)N/N=C/c1ccc(OCC(=O)Nc2ccccc2)cc1,-11,-0.8,-48,47%,6,
CCOC(=O)c1cc(NC(=O)CSc2nnc(CN3CCOCC3)n2C)ccc1Cl,17,-1.6,-36,2%,-5,
CCC(=O)c1c(NC(CC)CO)cc(C)oc1=O (stereo not drawn),4,0.9,.,-1%,3,
Cc1ccc(N=Nc2c(N)[nH]n3c(=O)c4c(nc23)CCCC4)cc1,-4,8.5,4,.,.,
CCC(C)NC(=O)C1c2cc(OC)c(OC)cc2C(=O)N(C)C1c1cccs1 (stereo not drawn),1,1.2,-14,-5%,1,
Cc1ccc(C(=O)c2ccc([N+](=O)[O-])cc2)cc1,-2,2.3,-13,-1%,4,
COc1ccc(OC)c(NC(=O)COC(=O)CNC(=O)c2ccc(OC)c(OC)c2)c1,-2,-0.6,-3,-6%,-17,
COc1ccccc1C(=O)Nc1ccnn1C1CCN(C(=O)C2CCOC2)CC1 (stereo not drawn),.,3.2,.,.,0,
COc1cccc(CSc2nc3cc4c(cc3cc2C)OCCO4)c1,-6,11,-27,5%,12,
CCc1nnc(SCc2ccc(OC(C)C)cc2)n1N,5,-3.5,-7,5%,-11,
Cc1ccc(C)c(OCc2ccc(C(=O)N3N=C(C(F)F)CC3(O)C(F)F)o2)c1 (stereo not drawn),-10,-1.9,-27,-3%,5,
CCOC(=O)N1CCN(C(=O)CCn2c(=S)[nH]c3ccsc3c2=O)CC1,10,10,.,-6%,-1,
COc1ccc(CN(CCC(c2ccccc2)c2ccco2)C(=O)c2ccco2)cc1 (stereo not drawn),11,29,-36,3%,7,
Cc1ccnn1CCC(=O)N1CCCC(CCC(=O)N2CCN(c3ccccn3)CC2)C1 (stereo not drawn),3,5.8,.,5%,2,
Cc1cccc(C(=O)NC(=S)Nc2ccc(S(=O)(=O)N(C)c3ccccc3)cc2)c1,1,1.4,-5,.,0,
CC(C)Cn1c(CCNC(=O)c2ccco2)nc2ccccc21,.,6.0,.,.,8,
Cc1cc(C(=O)Nc2nnc(C3CCCCC3)s2)no1,5,0.3,-18,-5%,-6,
CCc1ccc(Nc2nnc(SCC(=O)N(C)CC(=O)Nc3ccccc3CC)s2)cc1,6,-1.0,-15,2%,7,
CCOC(=O)N1CCC(N(CCCOC)C(=O)Nc2cccc(OC)c2)CC1,-1,1.4,-38,6%,-2,
CCOC(=O)N1CCN(C(=O)C2CCN(Cc3nc(-c4ccccc4C)oc3C)CC2)CC1,1,3.8,.,.,-1,Arbovirus inh repeat=2
COc1ccc(C(F)(F)F)cc1N/C=C\c1nnnn1-c1ccccc1,-11,4.8,-28,-6%,?,
Cc1ccnc(NS(=O)(=O)c2ccc(NC(=O)C34CC5CC(C)(CC(C)(C5)C3)C4)cc2)n1,-14,1.8,-38,-9%,-3,
O=C(CN(C(=O)c1csnn1)c1ccccc1Cl)NC1CCCC1,.,-1.3,.,.,1,
CN=c1scc(-c2ccccc2F)n1/N=C/c1ccc(O)c(O)c1O,-7,12,.,3%,.,
O=C(O)Cc1c(-c2ccccc2)c2cc(Br)ccc2[nH]c1=O,.,-2.8,.,-4%,-8,
Cc1ccc(C(=O)OCc2ccc3c(c2)OCO3)cc1S(=O)(=O)N1CCCCC1,-2,6.3,-30,-3%,-8,
CCOC(=O)c1cn2nc(Oc3cccc(C(F)(F)F)c3)ccc2n1,.,3.2,.,6%,-3,
COc1ccc(N2CCN(C(=O)NC(=O)c3ccccc3)CC2)cc1,.,-1.2,.,.,-16,
CN1C(C(=O)Nc2ccc(OC(F)(F)F)cc2)=CC(c2ccco2)=NS1(=O)=O,.,-6.7,.,.,4,
COc1ccc(OC)c(-n2c(SC)nnc2-c2c[nH]c3ccccc23)c1,4,1.0,.,-2%,2,
O=C(CCN1CCCCC1)NCC1OCCc2ccccc21 (stereo not drawn),-2,-0.7,-10,-1%,-5,

# Arranged by number of heavy atoms (lowest first): 3 of the compounds above.
SMILES,Arbovirus inh,RecA splice inh,YopH inh,Mtb growth,Mtb bLac sens,others
CCOC(=O)c1cn2nc(Oc3cccc(C(F)(F)F)c3)ccc2n1,.,3.2,.,6%,-3,
COc1ccc(OC)c(-n2c(SC)nnc2-c2c[nH]c3ccccc23)c1,4,1.0,.,-2%,2,
CN1C(C(=O)Nc2ccc(OC(F)(F)F)cc2)=CC(c2ccco2)=NS1(=O)=O,.,-6.7,.,.,4,

# (more compounds)
SMILES,Arbovirus inh,RecA splice inh,YopH inh,Mtb growth,Mtb bLac sens,others
CC(NC(=O)OCc1ccccc1)C(=O)NCC(=O)NC(Cc1ccc(OC(C)(C)C)cc1)C(=O)OC(C)(C)C (stereo not drawn),-6,0.6,-40,14%,-5,
COc1ccc(/C=N/NC(=O)c2cc3cc(OC)c(OC)cc3[nH]2)cc1,.,-10,.,.,4,
COc1ccc(CCn2nnnc2C(C(C)C)N2CCN(c3ncccn3)CC2)cc1OC (stereo not drawn),15,0.4,-5,.,-6,
Cc1ccc(N(CC(=O)Nc2ccc(F)c(Cl)c2)S(=O)(=O)c2c(C)noc2C)cc1,-2,-0.2,-16,2%,1,
O=P(O)(CN1CCCCC1)CN1CCCCC1,8,.,-32,-5%,.,
CCOC(=O)c1cn(CC)c2ccc(S(=O)(=O)N3CC(C)CC(C)C3)cc2c1=O (stereo not drawn),-2,.,-45,.,1,
CC(Oc1ccc2c3c(c(=O)oc2c1)CCCC3)C(=O)NCCN1CCOCC1 (stereo not drawn),.,-1.2,.,.,-3,
CCOc1ccc(/C=N/OCC(=O)Nc2ccc(OCc3ccccc3)cc2)cc1OC,-14,0.7,-21,62%,2,
Cc1ccc(NC(=O)c2cccc(OC(F)F)c2)c(OC(F)F)c1,5,-0.6,13,7%,3,
CCc1ccc(N(CC(=O)N2CCCCCC2)S(C)(=O)=O)cc1,.,0.9,.,.,3,
CC(=O)Oc1cccc(/C=C2\Sc3ccccc3C2=O)c1,.,11,.,7%,82,
O=C(Nc1ccc(SC(F)F)cc1)c1ccc(F)cc1,1,1.6,.,-5%,10,
COc1ccc(C(NC(=O)CC(C)C)NC(=O)CC(C)C)cc1OC,0,-0.7,1,4%,-9,
CNc1ncc(C(=O)c2ccc(F)cc2)s1,-4,-2.1,.,7%,-7,
COc1ccc(CCNC(=O)CSc2ncc(C(=O)Nc3ccccc3)c(=O)n2C)cc1,.,2.6,.,.,-6,
CC(C)N1C(=O)C(O)(C2COC(C)(C)CC2=O)c2ccccc21 (stereo not drawn),-17,0.0,.,1%,1,
CCOC(=O)N1CCN(C(=O)CSc2nc(CC)nc3c2c(=O)n(C)c(=O)n3C)CC1,.,-0.3,.,.,-1,
O=C(Cn1nc(-c2ccc(Cl)cc2)ccc1=O)NCC1COCCO1 (stereo not drawn),.,-4.6,.,.,-6,
CC(=O)c1ccc(OC(=O)COc2ccccc2)cc1,.,7.7,.,.,5,
O=c1c2c(nc3c(-c4ccccc4)c[nH]n13)CCC2,-11,2.6,-5,3%,95,
CCCN(CC(=O)Nc1ccc(Cl)cc1Cl)C(=O)/C=C/c1cc(OC)ccc1OC,8,-13,-16,-5%,5,
CCOc1cc(CNS(=O)(=O)c2cn(C)cn2)cc(OCC)c1OCC,.,1.2,.,.,-11,
CC(NC(=O)c1ccccc1)C(=O)OCC(=O)N1c2ccccc2Sc2ccccc21 (stereo not drawn),-2,6.4,10,6%,?,
O=C(O)c1cccc(N/N=C(\N=Nc2ccccc2)c2ccccc2)c1,.,41*,.,.,88,

# The closing two records of the section before are carried over, then new ones follow:
SMILES,Arbovirus inh,RecA splice inh,YopH inh,Mtb growth,Mtb bLac sens,others
CC(NC(=O)c1ccccc1)C(=O)OCC(=O)N1c2ccccc2Sc2ccccc21 (stereo not drawn),-2,6.4,10,6%,?,
O=C(O)c1cccc(N/N=C(\N=Nc2ccccc2)c2ccccc2)c1,.,41*,.,.,88,
COCCCNCCOc1ccc(C(C)(C)c2ccccc2)cc1,7,3.2,-23,-5%,9,
CC(=O)Nc1ccc(NS(=O)(=O)c2cc(-c3n[nH]c(=O)c4ccccc34)ccc2C)cc1,.,1.8,.,8%,7,
CCOC(=O)Cc1csc(NS(=O)(=O)c2ccccc2)n1,9,3.1,-36,-1%,-9,
CCN(C(=O)c1c(OC)cccc1OC)c1nnc(-c2cccnc2)s1,-4,-0.7,-27,-11%,-2,
O=C(CSCc1ccccc1Cl)Nc1c[nH]c(=O)[nH]c1=O,-1,0.2,-13,-1%,5,
Cc1ccc(/C=C/C(=O)NC(=S)Nc2ccccc2C(=O)NC2CCCCC2)cc1,-7,-1.0,-32,-4%,5,
Cc1ccc(C(NC(=O)N2CCOCC2)C(Cl)(Cl)Cl)cc1F (stereo not drawn),-5,-0.9,-11,0%,49,
CCCCOc1ccc(/C=C(\C#N)C(=O)NC2CC2)cc1,.,2.8,.,.,1,
O=C1NC(=O)C(=Cc2ccsc2)C(=O)N1,-1,0.6,.,-6%,-1,

# An excerpt; count on the stated rates, not on these rows.
